# From PubChem BioAssay
# Ecoli growth = blocks Escherichia coli growth; hit rate 0.21% among 330,000; OD600 absorbance (concentration not given with the values); OD600, 23 h; hits give low values;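 active = OD600 absorbance below the run mean of sample wells minus 3.6 SD, in any replicate, cut at about 0.56 in these data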;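 note: stock transfer was 300 nL into about 60 µL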
# ALR H2O2 inh = inhibitors of human sulfhydryl oxidase ALR | P55789 | purified ALR, DTT oxidation, H2O2 HRP-luminol luminescence | inhibition, % (test concentration not listed) | hit rate 3.8% among 290,000 | AID 485317;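 active = mean and each replicate at 75% or more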;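 note: stock transfer was 7.5 nL into about 7.5 µL; 0% = neutral wells and 100% = wells with inactivated enzyme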
# rRNA inh HTS = inhibitors of bacterial rRNA selective over humanized ribosomes | E. coli WT GFP vs humanized-ribosome RFP mutants, fluorescence, 24 h; hits give low values; DMSO median 0, no signal -100 | GFP signal change (wild-type ribosome), % (concentration not given with the values) | hit rate 1.6% among 350,000 | AID 720706;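 active = significant combined selectivity score with lowered wild-type GFP, culture density cut under 30%, mutant RFP and density less affected; inactive = any of these conditions unmet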; note: one replicate is shown; some compounds called inactive have numbers as strong as hits
# HNF4A DNA FP = change in binding of human HNF4 alpha to DNA. P41235. HNF4a-FITC DNA binding, fluorescence polarization, 1 h. activity change, % at 10 µM. hit rate 0.3% among 360,000. AID 1224865; in the data active = activity change above about 30%, passing the limit was not always enough;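 note: controls were the assay level and a saturating level of protein; the project sought stronger binding though the title names inhibitors; some compounds called inactive have numbers as strong as hits; positive values seem to mean higher polarization but the record does not say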
# Target sequence (P41235 whole entry, looked up): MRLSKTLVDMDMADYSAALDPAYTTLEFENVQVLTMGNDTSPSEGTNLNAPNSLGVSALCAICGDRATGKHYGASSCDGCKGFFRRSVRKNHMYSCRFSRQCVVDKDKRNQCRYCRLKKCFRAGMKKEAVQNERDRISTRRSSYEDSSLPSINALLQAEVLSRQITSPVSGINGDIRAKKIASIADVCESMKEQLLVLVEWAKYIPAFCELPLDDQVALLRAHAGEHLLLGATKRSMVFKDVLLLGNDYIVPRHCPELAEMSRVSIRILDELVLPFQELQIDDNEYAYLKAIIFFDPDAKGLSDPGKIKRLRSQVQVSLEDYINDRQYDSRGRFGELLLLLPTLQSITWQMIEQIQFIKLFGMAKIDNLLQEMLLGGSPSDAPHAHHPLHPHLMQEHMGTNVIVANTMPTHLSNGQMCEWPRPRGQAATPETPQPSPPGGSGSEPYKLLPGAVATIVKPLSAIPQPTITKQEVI
# FGF22 binding = binders of recombinant human FGF22 by thermal shift | SYPRO orange fluorescence; percent of sucrose octasulfate shift, DMSO zero | calls only at 9.99 µM | hit rate 1.5% among 340,000;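 active = melting point raised past a set limit in the mean and every replicate; three in four hits are not shown here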
# Target sequence (Q9HCT0 whole entry, looked up): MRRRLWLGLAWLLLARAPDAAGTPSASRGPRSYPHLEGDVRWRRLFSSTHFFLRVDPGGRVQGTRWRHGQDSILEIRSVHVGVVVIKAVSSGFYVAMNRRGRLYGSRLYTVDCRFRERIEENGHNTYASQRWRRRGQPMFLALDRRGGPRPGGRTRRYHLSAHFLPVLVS
# UCH37 inh = human UCH37 deubiquitinating enzyme inhibition | Q9Y5K5 | purified proteasome/UCH37, Ub-AMC cleavage fluorescence | inhibition, % (test concentration not listed) | hit rate 0.33% among 330,000 | AID 588478;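 active = mean of two replicates above 20%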;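 note: 0% = compound-free wells with enzyme and 100% = wells lacking proteasome; stock transfer was 100 nL into about 20 µL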
# Target sequence (Q9Y5K5 whole entry, looked up): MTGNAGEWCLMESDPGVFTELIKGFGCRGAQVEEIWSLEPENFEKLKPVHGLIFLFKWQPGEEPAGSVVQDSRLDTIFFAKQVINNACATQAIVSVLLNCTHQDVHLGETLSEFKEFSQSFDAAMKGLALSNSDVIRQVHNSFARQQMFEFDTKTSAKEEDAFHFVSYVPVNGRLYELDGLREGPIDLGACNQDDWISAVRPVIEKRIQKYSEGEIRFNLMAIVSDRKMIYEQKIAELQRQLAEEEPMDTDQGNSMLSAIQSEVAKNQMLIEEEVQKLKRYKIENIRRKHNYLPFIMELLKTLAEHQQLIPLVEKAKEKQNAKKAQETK
#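 Assay system: Proteasome-bound UCH37. Buffer or medium: pH 7.4 Tris-HCl (50 mM) with ovalbumin, ATP-MgCl2, DTT. Incubation: 30 min preincubation with enzyme, 25 min cleavage at room temperature. Measured by: fluorescence, ex 355 nm, em 460 nm. Read-out basis: percent inhibition. Control set: wells without proteasome as full block, compound-free enzyme plus substrate as uninhibited.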
# B2AR ag = activates human beta-2 adrenergic receptor causing internalization | P07550 | Am2.2-beta2AR cells, FAP receptor internalization, flow cytometry; reference of the scale not given here | response, % (no concentration beside the values) | hit rate 0.43% among 340,000;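 active = response above a set limit, near 3 SD of response in nonfluorescent compounds, cut at about 42% in these data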;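 note: stock transfer was 100 nL into about 11 µL; a reference agonist was the positive control; negative values mostly stem from fluorescent compounds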
# rRNA inh HTS OD600 = recorded beside rRNA inh HTS, whose call it bears; OD600 change, %; measured here: OD600 growth;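 optical density of the mix in the first replicate; 0 = DMSO median and -100 = no signal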
# rRNA inh HTS RFP = recorded beside rRNA inh HTS, whose call it bears; RFP signal change, %; measured here: RFP humanized mutant strains;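 first replicate; 0 = DMSO median and -100 = no signal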
# * hit, by the source's call; i = inactive; nt = no result given; & = joins results of further samples; ! = repeats disagree.
# Sequence of screens: rRNA inh HTS OD600, rRNA inh HTS, B2AR ag, FGF22 binding, UCH37 inh, HNF4A DNA FP, ALR H2O2 inh, Ecoli growth, rRNA inh HTS RFP
COc1cccc(-c2csc(N3CCN(C(=S)Nc4ccccc4OC)CC3)n2)c1
    nt, nt, -8, nt, 1.9, 3.3, -2, 0.73, nt
Cc1nc(NCC2CCCO2)c2oc3ccccc3c2n1 (configuration not stated)
    nt, nt, 7, nt, 1.2, -3.0, 1, 0.73, nt
COc1cc(NC(=O)CN2CCN(c3ccccc3)CC2)c(C)cc1[N+](=O)[O-]
    nt, nt, 0, nt, 2.5, -0.1, nt, 0.72, nt
CCOC(=O)c1ccc(NC(=O)N2CCc3ccccc32)cc1
    nt, nt, -15, nt, 1.2, -0.7, -27, 0.72, nt
Cc1ccc(SCC(=O)N2CCC(C(N)=O)CC2)cc1
    11, 23, 2, i, 2.1, -2.9, -2, 0.69, 0.3
O=C(CCC1CCN(Cc2ccccc2O)CC1)NC1CC1
    9, 2, -1, i, 2.1, 0.4, 9, 0.68, -2.9
Cc1ccc(S(=O)(=O)N(CC(=O)N2CCOCC2)c2ccc(C(C)C)cc2)cc1
    3, -3, -6, i, nt, -4.9, -22, nt, 3.9
O=C(CCN1C(=O)C2CCCCC2C1=O)Nc1nc2c(F)cc(F)cc2s1 (configuration not stated)
    17, 23, 1, i, 1.5, 5.7, 1, 0.72, 14
COc1cc(C)nc(NS(=O)(=O)c2ccccc2Cl)n1
    7, 14, 7, i, 0.2, -0.3, -7, 0.66, -2.0
N#Cc1cccc(C(c2nnnn2C2CCCC2)N2CCCCCC2)c1 (configuration not stated)
    nt, nt, 3, nt, -0.9, 6.2, -11, 0.68, nt
CC(C)(C)OC(=O)NCCc1nnc(SCC(=O)c2ccc(Cl)cc2)o1
    nt, nt, -5, nt, -1.8, -4.6, 35, 0.72, nt
COc1cc(C(F)(F)F)c(C(=O)N(C)Cc2cc(Cl)cc(Cl)c2)cn1
    nt, nt, -9, i, 2.5, 1.0, -7, 0.62, nt
CCCOC(=O)C1=C(C)NC2=C(C(=O)CCC2)C1c1ccc(N(C)C)cc1 (configuration not stated)
    nt, nt, -8, nt, -0.1, 0.0, 91*, 0.73, nt
COC(=O)CNS(=O)(=O)c1ccc(Cc2ccc(S(=O)(=O)NCC(=O)OC)cc2)cc1
    nt, nt, 30, i, 0.2, -2.9, 99*, 0.65, nt
CC(=O)NC(NC(C)=O)c1ccc(N(C)C)cc1
    nt, nt, -1, nt, 6.4, 0.5, 0, 0.67, nt
COc1ccc(C(=O)O)cc1S(=O)(=O)Nc1cccc(C)c1
    nt, nt, 2, nt, 0.2, 3.0, -3, 0.68, nt
Nc1ccc2c(O)cc(S(=O)(=O)O)cc2c1
    16, -5, -1, nt, -113, -15, nt, 0.67, 12
Cc1c(C(=O)NCc2c(F)cc(F)cc2F)oc2ccc(S(=O)(=O)N3CCOCC3)cc12
    3, 0, 6, i, 4.5, 0.1, -7, 0.65, 1.7
CCCCN(C(=O)C1CSC2(C)CCC(=O)N12)c1c(N)n(CC(C)C)c(=O)[nH]c1=O (configuration not stated)
    9, 8, -6, i, 0.1, 0.8, -6, 0.71, -1.8
CC1CCC(C(C)C)C(OC(=O)Cn2c(-c3ccccc3)[n+](C)c3ccccc32)C1 (configuration not stated)
    -28*!, -51*!, 6&8, i, 3.0&5.5, 3.8&0.1, 3, 0.62&0.67, -16*!
CC(C)(C)[C@H](N)C(=O)N[C@H]1CCC2C3CC=C4C[C@@H](O)CC[C@]4(C)C3CC[C@@]21C (some centres not stated)
    -60, -40, 28, i, nt, 4.5, -4, nt, -5.8
C1CCC2(CC1)C1=C(CCCC1)Nc1nnnn12
    nt, nt, -4, nt, 4.5, 0.0, 49, 0.69, nt
O=C(CCCc1ccccc1)NCCS(=O)(=O)N1CCN(c2ccccc2)CC1
    -5, -3, nt, i, nt, 5.7, nt, nt, 1.3
Cc1nc2ccccc2nc1OCC(=O)NCc1ccc2c(c1)OCO2
    nt, nt, -1, nt, 1.4, 5.4, -6, 0.71, nt
COc1ccc(NC(=O)CC2(CC(=O)N3CCOCC3)CCCC2)cc1Cl
    0, -1, 3, i, 4.6, -2.8, nt, 0.7, 3.7
Cc1ccc(NC(=O)C2CCCN2C(=O)Oc2ccccc2)cc1C (configuration not stated)
    nt, nt, 1, nt, 3.2, 2.0, 3, 0.67, nt
CCC(C)Sc1ccc([C@H]2N[C@@](C)(C(=O)OC)[C@H]3C(=O)N(CC)C(=O)[C@@H]23)cc1OC (some centres not stated)
    1, 13, -2, i, 0.6, 0.5, 3, nt, 0.3
Cc1ccc(S(=O)(=O)N(C)CCCC(=O)Nc2ccncc2)cc1
    -9, -6, 9, i, 3.9, -0.3, -3, 0.71, 2.5
CCN(CC)S(=O)(=O)c1ccc(Oc2ccccc2OC)cc1
    -1, -10, 5, i, 2.5, -1.9, -6, 0.72, -2.5
Cc1ccc(S(=O)(=O)N2CCN(CCNC(=O)C(=O)NCc3ccccc3)CC2)cc1
    8, 9, -4, i, 3.0, -1.5, -12, 0.71, -0.9
COc1ccc(N2C(=O)CC(N3CCN(Cc4ccc5c(c4)OCO5)CC3)C2=O)cc1 (configuration not stated)
    6, 22, -5, nt, 2.0, -1.8, -11, 0.66, 1.1
CC1(OC(=O)CCc2ccccc2)C(=O)C=C2C=C(c3ccc(C#N)cc3)N(c3ccccc3)C=C2C1=O (configuration not stated)
    -51, -24, 7, i, -0.7, 7.0, -11, 0.7, 17
CCS(=O)(=O)N1CCN(C(=O)c2cccc(OC)c2)CC1
    nt, nt, 17, nt, -0.1, 1.2, nt, 0.67, nt
CCN(CC)C(=O)c1ccc2c(=O)n(Cc3ccc4c(c3)OCO4)c(=S)[nH]c2c1
    7, 7, 5, i, 1.7, 0.8, -10, 0.67, -2.3
CC(C)C[C@@H](CN1CCC[C@H]1CN1C(=O)C(=O)NC[C@@H]1Cc1ccc(O)cc1)N1C[C@H](Cc2ccc(O)cc2)N(CC2CCCCC2)C(=O)C1=O
    -20, -9, nt, i, nt, 2.5, nt, nt, 11
COCCNC(=O)CCN1N=C(c2ccccc2)CCC1=O
    1, 14, -10, i, 2.9, 2.1, nt, 0.7, 2.3
Cc1ccc(/C=C/C(=O)Nc2ccc(S(=O)(=O)Nc3cc(C)nc(C)n3)cc2)cc1
    -14, -11, 8, i, 2.8, 1.6, nt, 0.65, 1.7
COc1cccc(C(=O)Oc2cc(-c3ccccc3)no2)c1
    nt, nt, 5, nt, 3.5, 3.6, 0, 0.82, nt
CCOC(=O)N1CCN(C(=O)c2ccc3c(=O)n(CCC4=CCCCC4)c(=O)[nH]c3c2)CC1
    nt, nt, -2, nt, 0.3, 3.5, -12, 0.7, nt
CCOc1cc(/C=C/C(=O)c2ccc(OC)c(CN3CCOCC3)c2)cc(Br)c1O
    -10, -24, -27, i, 8.3, 5.2, nt, 0.69, 32
CCC(C(=O)N1CCC(C(N)=O)CC1)n1nc(C)n2c(cc3occc32)c1=O (configuration not stated)
    5, 4, -14, i, -2.5, -1.0, 1, 0.68, 2.4
O=C1/C(=C\c2ccc(O)cc2)CCC1CNc1ccc(Cl)cc1 (configuration not stated)
    -7, -6, 4, i, nt, 8.4, nt, nt, 1.6
CNC(C)C(=O)NC(C(=O)NC(C)C(=O)NNc1ccccc1)C(C)C (configuration not stated)
    7, 16, nt, i, nt, 3.0, nt, nt, -1.6
CCOc1cc(NS(=O)(=O)c2ccc(NC(C)=O)cc2)c(OCC)cc1NC(=O)c1cccs1
    nt, nt, -11, nt, 4.3, 0.7, -69, 0.73, nt
CCc1ccc(/C(C)=N/NS(=O)(=O)c2ccc(OC)cc2)s1
    -11, -1, -8, i, nt, -2.3, nt, nt, 0.8
CCCCN(C(=O)/C=C/c1ccccc1)C1CCS(=O)(=O)C1 (configuration not stated)
    2, 2, -7, i, 2.8, -0.4, 2, 0.67, -1.2
CCOC(=O)c1cnc(SCC(=O)c2ccc3c(c2)OCCO3)nc1N
    nt, nt, -19, nt, 4.7, -1.0, 10, 0.72, nt
Cc1nc(-c2ccc(NC(=O)CC(C)C)cc2)cs1
    nt, nt, 3, nt, 1.7, 1.4, 100*, 0.68, nt
Cc1ccc(NC(=O)CN2CCN(C(=O)c3ccco3)CC2)cc1S(=O)(=O)N(C)C
    14, 18, -4, i, -0.4, 0.8, nt, 0.64, 1.6
CN1CC(C(=O)O)Cc2c1ccc1ccccc21 (configuration not stated)
    0, 15, 1, i, nt, -3.4, 37, nt, -0.3

# (next part)
# Sequence of screens: rRNA inh HTS OD600, rRNA inh HTS, B2AR ag, FGF22 binding, UCH37 inh, HNF4A DNA FP, ALR H2O2 inh, Ecoli growth, rRNA inh HTS RFP
C=CCn1c(SCC(=O)N(C)C2CCS(=O)(=O)C2)nc2ccccc2c1=O (configuration not stated)
    6, 17, -1, i, 6.7, 1.0, 0, 0.64, 1.1
COc1ccc(Cn2c(=O)[nH]c3cc(C(=O)NCCCN4CCCC4)ccc3c2=O)cc1
    nt, nt, 6, nt, -2.2, 1.9, -4, 0.69, nt
O=C(Nc1ccc(F)cc1F)NC1CC1
    22, 20, -8, i, 3.5, -1.1, -4, 0.72, 4.9
CN(C)C(=O)C[n+]1ccc(/C=N/O)cc1
    9, 3, 6, i, nt, -1.6, -14, nt, -0.5
CC(=O)N(C)C[C@H]1Oc2cc(Br)ccc2S(=O)(=O)N([C@H](C)CO)C[C@@H]1C
    10&-6, 11&-3, nt, i, nt, 0.6, nt, nt, 2.9&-1.0
Cn1c(SCC(=O)c2ccccc2)nnc1-c1ccco1
    nt, nt, -18, nt, 1.6, -1.1, 41, 0.67, nt
N#C/C(=C/c1ccc(OCc2ccccc2)cc1)C(=O)NC1CCCCC1
    nt, nt, -1, nt, -209, 0.8, 8, 0.76, nt
O=C(NCCCCC(NC(=O)c1ccc([N+](=O)[O-])cc1)C(=O)O)c1ccc([N+](=O)[O-])cc1 (configuration not stated)
    nt, nt, -5, nt, 0.7, -0.8, -33, 0.76, nt
COc1ccc(OCCNC(=O)c2cc(C3CC3)nc3c2cnn3C(C)C)cc1
    -42, 4, 14, i, 1.6, -2.5, -7, 0.73, 33
CCOc1ccc(NC(=O)c2ccc3c(=O)n(-c4ccc(OC)cc4OC)c(=S)[nH]c3c2)cc1
    6, 4, 13, i, nt, -2.4, nt, nt, -0.5
C/C(=C\C(=O)c1ccccc1)NNc1nc2ccccc2s1
    nt, nt, -2, nt, 2.7, -2.9, 15, 0.73, nt
CCN(CC)S(=O)(=O)c1ccc(NS(=O)(=O)c2ccc(F)cc2)cc1
    nt, nt, 1, nt, -0.5, 1.1, -5, 0.7, nt
Cc1ccc(/C(N)=N/OC(=O)c2ccco2)cc1
    nt, nt, 0, nt, 0.0, 1.3, nt, 0.7, nt
COc1nc(N(C)S(=O)(=O)c2ccc(C)cc2)nc(C)c1Br
    6, 8, -7, i, 0.7, -1.5, 40, 0.7, -0.2
CCn1nnc2cc(C(=O)Nc3ccc(C(=O)OC(C)C)cc3)ccc21
    -1, 5, 3, i, -4.2, 7.8, 0, 0.64, 24
CCS(=O)(=O)Nc1cccc(C(=O)O)c1
    nt, nt, nt, nt, 1.6, nt, -5, 0.68, nt
C=CCNc1cc(N2CCCC2)ccc1[N+](=O)[O-]
    7, 5, -20, i, 4.4, 1.8, 24, 0.71, 4.9
O=C1CC(c2cccc(Cl)c2)CC(O)=C1C=Nc1cccc(Cl)c1 (configuration not stated)
    nt, nt, 5, nt, 0.4, -2.6, -1, 0.67, nt
Cc1csc(=O)n1CC(=O)OCC(=O)Nc1ccc(Cl)cc1F
    -6, -2, -7, i, 0.1, -0.1, -4, 0.64, -2.1
Cc1ccc2c(NC(=O)c3ccco3)cccc2n1
    14, 5, 4, i, 2.5, 3.9, -8, 0.73, 1.2

# Only part of the results is shown. The share of hits here may be higher or lower than overall.
